Screening results from PubChem.
VDR inhibitor – Inhibitors of the vitamin D receptor (VDR): qHTS; AID 504847, 2011; 400,000 tested, 0.93% active; Potency, µM, for inactives: max response, negative = inhibition, usual class: inhibitors; Vitamin D3 receptor (Homo sapiens), P11473; VDR-SRC2-3 peptide fluorescence polarization, 2 h; active means well fitted inhibition curve with a large enough effect; inconclusive means small, poorly fitted or top-dose-only effect, or another doubt; inactive means no such curve, though single readings can be large or run the other way; further: series mostly up to about 120 µM
Target sequence (P11473 whole entry, looked up): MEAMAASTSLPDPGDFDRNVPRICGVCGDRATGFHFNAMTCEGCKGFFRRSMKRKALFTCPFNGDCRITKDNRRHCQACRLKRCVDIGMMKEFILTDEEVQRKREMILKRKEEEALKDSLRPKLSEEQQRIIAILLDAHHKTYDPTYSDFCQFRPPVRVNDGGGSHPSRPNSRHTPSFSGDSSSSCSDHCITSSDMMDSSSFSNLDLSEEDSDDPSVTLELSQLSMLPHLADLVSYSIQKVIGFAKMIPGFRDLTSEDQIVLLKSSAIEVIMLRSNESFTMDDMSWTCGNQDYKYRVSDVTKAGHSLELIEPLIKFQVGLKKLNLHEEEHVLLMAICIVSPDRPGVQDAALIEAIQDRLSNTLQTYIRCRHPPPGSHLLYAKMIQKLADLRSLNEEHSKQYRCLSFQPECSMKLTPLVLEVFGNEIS
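The screen uses fluorescence polarization to detect compounds that interfere with recruitment of the SRC2-3 coactivator peptide to VDR; plates are read after 2 h at room temperature.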
* = called active by the depositor; ? = inconclusive; [ ] = remark or other dose. On the % scale 0 is the no-effect control and ±100 the full control effect; potency means the concentration at half of the fitted maximal effect.

SMILES	VDR inhibitor
CCC1OC(=O)C(C)C(OC2C[C@@](C)(OC)C(O)C(C)O2)C(C)C(O[C@@H]2OC(C)CC(N(C)C)C2O)[C@](C)(O)CC(C)C(=NOCOCCOC)C(C)C(O)[C@]1(C)O (stereo not given in full)	-2%
COc1ccccc1NCc1cccn1-c1nnc(N2CCOCC2)s1	0%
O=C(NC1CCCCCC1)c1ccc(CS(=O)c2cccc(Cl)c2)o1 (stereo not given)	10%
O=C(OC(C(=O)NCC1CCCO1)c1ccccc1F)c1ccco1 (stereo not given)	?
COc1ccc(CCN2CC(C(=O)NCCN3CCCC3=O)CCC2=O)cc1 (stereo not given)	-14%
CN(C(=O)C1CCC(=O)N(Cc2cccc(F)c2)C1)C1CCCCC1 (stereo not given)	-10%
O=C(O)CCN(CCC(=O)O)S(=O)(=O)c1ccccc1	1%
Cc1ccc(C2c3[nH]c4ccccc4c3CCN2C(=O)c2ccccc2Br)cc1 (stereo not given)	9%
O=c1c2ccccc2nc2n1CCO2	-15%
COC(=O)COc1nc(C)c(Br)c(OC)n1	11%
O=C(C1CCN(C2CCN(Cc3ccc4c(c3)CCO4)CC2)CC1)N1CCOCC1	12%
Cc1ccccc1C(=O)NNC(=O)c1cccc([N+](=O)[O-])c1	-13%
CCOc1ccc(-n2cnc3sc(C)c(C)c3c2=O)cc1	17%
Cc1cc(OC(=O)c2c(Cl)cccc2Cl)nc(C)n1	29%
Cc1cc(NS(=O)(=O)c2ccc(NC(=O)c3cc(-c4cccnc4)nc4ccc(Cl)cc34)cc2)no1	10%
COc1ccc(OC)c(-c2csc(N3CCC(c4ccccc4)CC3)n2)c1	-20%
CNC(=S)N(CCc1ccccc1)Cc1cc2cc(OC)c(OC)cc2[nH]c1=O	1%
COc1cc(NC(=O)c2cccs2)ccc1NC(=O)Cc1ccccc1	7%
COc1cccc(-c2csc(N3CCN(Cc4ccccc4)CC3)n2)c1	11%
CC(C)Cn1c(=O)c2ccccc2n2c(CCC(=O)O)nnc12	1%
NC(=O)C(CC(=O)O)NC(=O)[C@@H]1CCCNc2c(I)cc([N+](=O)[O-])cc2C(=O)N[C@@H](CO)C(=O)N[C@@H](Cc2ccc(O)cc2)C(=O)N1 (stereo not given in full)	5%
CN(C)c1nc(N(C)C)nc(N(C#N)Cc2ccc(Cl)cc2)n1	60%[activator]
CCCc1cc(=O)[nH]c(SCC(=O)N2CCC(C)CC2)n1	13%
O=C(NC1CC(=O)N(c2ccc(Cl)cc2)C1)C1CC1 (stereo not given)	-6%
COc1ccc2oc(C(=O)OCC(=O)N(C)CC(=O)Nc3ccc(C)cc3)c(C)c2c1	9%
Cc1noc(C)c1-c1cc(NC2CCNCC2)ncn1	-6%
COc1cccc(OC)c1C(=O)Nc1ccc2c(c1)Cc1ccccc1-2	13%
O=C(N/N=C/c1cc2c(cc1Cl)OCO2)c1ccc2c(c1)OCCO2	16%
COCc1cc(Sc2c(Cl)cccc2Cl)nc(-c2ccccc2)n1	-9%
COc1ccc2[nH]cc(CCCN3C(=O)c4ccccc4C3=O)c2c1	?
O=C(c1ccco1)N(CCO)Cc1cc2cc3c(cc2[nH]c1=O)OCO3	4%
Cn1c(=O)[nH]c(=O)c2c1nc(OC(=O)c1ccccc1)n2CC(O)COc1ccc(F)cc1 (stereo not given)	4%
O=C(COC(=O)[C@@H]1CC(O)CN1S(=O)(=O)c1ccc(Cl)cc1)NC(=O)NCc1ccccc1 (stereo not given in full)	-14%
COc1cc(/C=C2/C(=O)ON=C2C)ccc1OCc1ccccc1F	-94%
COc1cc(NC(=O)c2cnc3c(-c4ccc(F)cc4)c(C)nn3c2C)cc(OC)c1	-10%
COc1ccc(CCNC(=O)C(=O)NN=C2CCCCCCC2)cc1OC	8%
COc1ccc(C2=C(C)C(=NCc3ccc(OC(C)C)cc3)NS2(=O)=O)cc1	-3%
O=C(NCC(=O)N(CC1CCCO1)C(C(=O)NC1CCCCC1)c1cccnc1)c1cccs1 (stereo not given)	-10%
Cc1c(C(=O)Nc2ccc(F)c(Cl)c2)sc2nc3n(c(=O)c12)CCC3	9%
CCOc1ccc(NC(=O)CCNC(=O)C2CCN(S(=O)(=O)c3ccccc3)CC2)cc1	2%
CO/N=C(\C(=O)N[C@@H]1C(=O)N2C(C(=O)O)=C(COC(N)=O)CS[C@@H]12)c1ccco1	6%
CCCn1c(C)cc(/C=C(\C#N)C(=O)OCC(=O)NC(=O)NC(C)(C)C)c1C	-1%
CC(C)c1ccc(N(C(=O)c2csnn2)C(C(=O)NC(C)(C)C)c2ccncc2)cc1 (stereo not given)	1%
CCCCOCCCNC(=O)c1ccc(OCC)cc1	-3%
CC(C)=NOCC(=O)Nn1c(COc2ccccc2)nc2ccccc2c1=O	-10%
CCOc1ccc2ccccc2c1/C=N/NC(=O)CC1(C)OCCCO1	-11%
CCOc1ccc(C2c3c(oc4ccc(C)cc4c3=O)C(=O)N2CCCN(C)C)cc1OC (stereo not given)	4%
CN1CCCN(c2ncnc3scc(-c4ccc(F)cc4)c23)CC1	4%
COc1ccc(-c2cc(-c3ccccc3)c(C#N)c(SCC(O)CS(=O)(=O)Cc3ccc(Cl)cc3)n2)cc1 (stereo not given)	3%
COc1ccc(NC(=O)CC2C(=O)N(c3ccccc3)C(=O)N2Cc2ccco2)cc1 (stereo not given)	-6%

Part of the list above, set out differently.
| mol | VDR inhibitor |
| --- | --- |
| CCCCOCCCNC(=O)c1ccc(OCC)cc1 | -3% |
| CC(C)=NOCC(=O)Nn1c(COc2ccccc2)nc2ccccc2c1=O | -10% |

Going on with the list.
SMILES	VDR inhibitor
COc1cc2c[n+](C)c3c4ccccc4ccc3c2cc1OC	-9%
COc1cc(C(=O)NCc2ccccn2)ccc1OCc1c(C)noc1C	-11%
CCOC(=O)c1c(NC(=O)CN(CC)CC)sc2c1CCC2	-13%
CC(=O)c1cccc(NC(=O)CN(c2ccc(C)cc2)S(=O)(=O)c2cccc3nonc23)c1	10%
Cc1ccc2nc(N(CCCN(C)C)C(=O)c3sc4ccccc4c3Cl)sc2c1	-10%
COc1ccc(Cl)cc1Nc1cc(C)nc2nc(-c3ccccc3C)nn12	8%
CSc1cccc(NC(=O)Cc2ccccc2[N+](=O)[O-])c1	-12%
O=C(CNCCc1ccccc1)N1CCc2ccccc2C1	-17%
C[C@@H]1CN([C@H](C)CO)C(=O)c2cccc(NC(=O)Nc3ccc(C(F)(F)F)cc3)c2O[C@H]1CN(C)S(=O)(=O)c1cccs1	13%
COc1ccc(C2Cc3ccccc3C(=O)O2)cc1 (stereo not given)	-14%
COc1ccccc1/C=C/C(=O)NCC(=O)N/N=C/c1cc(Br)ccc1OC	-2%
Cc1cccc(OCC(=O)NNC(=O)c2ccccc2OCc2c(C)noc2C)c1	8%
COCCNC(=S)Nc1ccc(N2CCCCC2)cc1	32µM*
COc1ccccc1CNC(=O)c1sc2nc3n(c(=O)c2c1C)CCC3	5%
COc1ccc(-n2cccc2/C=C2\C(=N)N3N=C(C(C)C)SC3=NC2=O)cc1	3%
O=C(NN1CCOCC1)c1ccc(Cl)c(Cl)c1	21%
CC1CCCCN1C(=O)Cn1c(=O)n(CCC(=O)NCc2ccco2)c(=O)c2sccc21 (stereo not given)	4%
CC(C#N)Sc1ncnc2sc(-c3ccccc3)cc12 (stereo not given)	-10%
CCC/C(=N\NC(=O)c1ccco1)c1ccc(Cl)s1	19%
COc1ccccc1NC(=O)CSc1nc(O)c(Cc2ccccc2)c(=O)[nH]1	-5%
Cc1cc(NC(=O)CSCC(=O)Nc2cc(Cl)ccc2N2CCN(C)CC2)no1	8%
CCCc1cc(=O)[nH]c(SCC(=O)N(C)C2CCCCC2)n1	-25%
N#CC1(C#N)COC23CCCCC2C1(C#N)C(=N)O3 (stereo not given)	-22%
COc1cccc(OC)c1C(=O)N1CCN(c2ccccn2)CC1	-13%
Cc1ccc(NC(=O)Nc2cccc(C(F)(F)F)c2)nc1	5%
Cc1cccc(NC(=O)C2(c3ccc([N+](=O)[O-])cc3)CCCC2)c1	-1%
Cc1cc(OCCOc2cccc3cccnc23)c(C)cc1Cl	-3%
O=C(c1cccc(Oc2ccc([N+](=O)[O-])cc2Cl)c1)N1CCOCC1	-9%
COc1ccc(NC(=O)c2ccc(NC(=O)c3nc4nccc(C)n4n3)cc2)cc1	3%
COc1ccc(-n2c(-c3ccco3)nc3c(cnn3-c3ccc(Cl)cc3)c2=O)cc1	-13%

15 entries from above, set out differently:
mol | VDR inhibitor
O=C(NN1CCOCC1)c1ccc(Cl)c(Cl)c1 | 21%
CC1CCCCN1C(=O)Cn1c(=O)n(CCC(=O)NCc2ccco2)c(=O)c2sccc21 (stereo not given) | 4%
CC(C#N)Sc1ncnc2sc(-c3ccccc3)cc12 (stereo not given) | -10%
CCC/C(=N\NC(=O)c1ccco1)c1ccc(Cl)s1 | 19%
COc1ccccc1NC(=O)CSc1nc(O)c(Cc2ccccc2)c(=O)[nH]1 | -5%
Cc1cc(NC(=O)CSCC(=O)Nc2cc(Cl)ccc2N2CCN(C)CC2)no1 | 8%
CCCc1cc(=O)[nH]c(SCC(=O)N(C)C2CCCCC2)n1 | -25%
N#CC1(C#N)COC23CCCCC2C1(C#N)C(=N)O3 (stereo not given) | -22%
COc1cccc(OC)c1C(=O)N1CCN(c2ccccn2)CC1 | -13%
Cc1ccc(NC(=O)Nc2cccc(C(F)(F)F)c2)nc1 | 5%
Cc1cccc(NC(=O)C2(c3ccc([N+](=O)[O-])cc3)CCCC2)c1 | -1%
Cc1cc(OCCOc2cccc3cccnc23)c(C)cc1Cl | -3%
O=C(c1cccc(Oc2ccc([N+](=O)[O-])cc2Cl)c1)N1CCOCC1 | -9%
COc1ccc(NC(=O)c2ccc(NC(=O)c3nc4nccc(C)n4n3)cc2)cc1 | 3%
COc1ccc(-n2c(-c3ccco3)nc3c(cnn3-c3ccc(Cl)cc3)c2=O)cc1 | -13%

New compounds follow
SMILES	VDR inhibitor
CS(=O)(=O)Nc1ccc(C2=NN(C(=O)c3ccco3)C(c3ccccc3)C2)cc1 (stereo not given)	-4%
CCCOC(=O)NC(CC)COC(=O)Nc1cc(C)ccc1C (stereo not given)	22%
CC(C)CCNC(=O)c1ccc(CS(=O)(=O)Cc2ccccc2F)o1	-1%
Cc1cc(NC(=O)c2ccco2)c(=O)n(Cc2c(F)cccc2Cl)c1	12%
CCOC(=O)c1c(C)oc2ccc(NS(=O)(=O)c3ccc4c5c(cccc35)C(=O)N4)cc12	-2%
O=C(c1cccc(S(=O)(=O)NCc2ccccc2)c1)N1CCCC1	-12%
CCCCNc1c(-c2cccc(SC(C)CC)c2)nc2ccc(Cl)cn12 (stereo not given)	-16%
Cc1ccccc1C(=O)NC(=S)Nc1ccc(N2CCN(C(=O)c3ccccc3)CC2)cc1	-2%
O=C(CN(C1CC1)S(=O)(=O)c1ccc(S(=O)(=O)N2CCCCCC2)cc1)Nc1ccccc1	12%
COc1ccc(-c2noc(CCC(=O)O)n2)cc1	-13%
CCOC(=O)c1ccc(NC(=O)Oc2cc(C)c(Cl)cc2C(C)C)cc1	-4%
COc1ccc(CN([C@H](CO)CC(C)C)S(=O)(=O)N(Cc2ccccc2)[C@H](CO)CC(C)C)cc1	-12%
CC(C)c1ccc2nc(NC(=O)C3CC3)sc2c1	-2%
O=C(C1CCN(S(=O)(=O)c2cccnc2)CC1)N1CCN(c2cccc(Cl)c2)CC1	-19%
Cc1cccc(Nc2nc3ccccc3n3nnnc23)c1	-16%
Cc1cc(NC(=O)COC(=O)CCS(=O)(=O)c2ccc(C)c(C)c2)no1	-12%
Cc1cccc(C)c1NC1=NC(=S)N(c2ccccc2)C12CCOC(C)(C)C2 (stereo not given)	-3%
C=CCn1c(CNC(=O)c2cccs2)n[nH]c1=S	-9%
Cc1ccccc1NC(=S)NC(C)C(c1ccccc1)N1CCN(C)CC1 (stereo not given)	2%
CCOC(=O)CSc1nc2sc3c(c2c(=O)n1-c1ccc(C)cc1)CCN(C)C3	15%
COc1ccc(C(=O)NC2CC2)cc1OC1CCN(Cc2ccc(NC(C)=O)cc2)CC1	13%
CC(=O)c1ccccc1NS(=O)(=O)c1cccc2nonc12	7%
C=CCNC(=O)COC(=O)c1oc2ccccc2c1CSC1CCCCC1	-11%
Cc1oc2ncn(CC(C)C)c(=O)c2c1C(=O)N1CCN(c2cccc(C(F)(F)F)c2)CC1	2%
COc1cccc(Cn2cc(-c3cccc(C(F)(F)F)c3)nn2)c1	8%
O=P(COCCOCCOCCOCP(=O)(c1ccccc1)c1ccccc1)(c1ccccc1)c1ccccc1	-14%
Cc1cccc2c1N(CCCOc1ccc(C(C)(C)C)cc1)C(=O)C2=O	40µM*
O=S(=O)(c1ccc(Br)cc1)c1nnn2c1nc(N1CCOCC1)c1sccc12	4%
COc1cc(OC)c2c(c1)S(=O)(=O)C(c1ccccc1)=C2N	-18%
Cc1ccc(NCc2nnc(SCC(=O)c3ccccc3)n2Cc2ccco2)c(C)c1	?
O=C(/C=C/c1cn(CC(O)CN2CCCCCC2)c2ccccc12)c1ccc(Br)cc1 (stereo not given)	19%
COc1ccc(S(=O)(=O)NC(N)=NCCc2ccc(OC)c(OC)c2)cc1C	-1%
COC(=O)c1ccc(NC(=O)N2CCC(O)(c3cccnc3)CC2)cc1	4%
Cc1cc(NC(=O)CCC(=O)N(CC(=O)NCC2CCCO2)c2ccccc2)no1 (stereo not given)	-27%
COC(=O)CCc1c(C)c(C(=O)c2ccc(F)cc2)c2ccccn12	-3%
CCOc1c2ccc(C(=O)NC3CCCc4ccccc43)cc2nn1C (stereo not given)	-3%
Cc1cc(C)c(NC(=O)C2CCCN2C(=O)NC2CCCCC2)c(C)c1 (stereo not given)	4%
Cc1cc(C)cc(N2C(=O)N(Cc3cc(=O)n4ccccc4n3)c3ccccc3S2(=O)=O)c1	15%

Only part of the results is shown; count on the stated rates, not on these rows.
